H5N1 CPE – MDCK cell protection from H5N1 avian flu | AID 740, 2007 | 96,000 tested, 0.07% active | inhibition, % at 50 µM | cytopathic effect, luminescence, 72 h; stronger effect = higher value; no value below 0 was filed and about half of the inactive calls have no number; reference of the scale not given here; in the data active means inhibition above about 25%
The depositor's hits bear a star; i = inactive. Some of the compounds tested (hit frequency here may not be typical).

SMILES | H5N1 CPE
CC(C)O/C(=N\S(=O)(=O)c1ccc(Cl)cc1)c1ccccc1 | i
COc1cc(C2c3c(n[nH]c3C)C(=O)N2c2ccc(Br)cc2)ccc1O (configuration not stated) | i
CCOC(=O)c1c(C)sc2c1N(C(=O)CN(CC)CC)c1cc(Cl)ccc1S2 | i
CC(=O)/C(C(=N)N1CCN(Cc2ccccc2)CC1)=C(\C)O | i
CCN(CCCNC(=O)CN1C(=O)COc2ccccc21)c1cccc(C)c1 | i
CC1CCN(C(=O)Cn2cc3c(n2)CCCC3)CC1 | 0.9
C=CCNC(=O)NC(=O)COC(=O)COc1ccc(Br)cc1F | i
O=S(=O)(c1ccccc1Cl)N1CCC(O)(c2ccc3c(c2)OCO3)CC1 | 0.7
CC(=O)Nc1ccc(OC(=O)CC2SC(=O)NC2=O)cc1 (configuration not stated) | i
CNC(=O)c1cc2cc(OC)ccc2oc1=O | i
CCCC/C(O)=C1\C(=O)CC(C)(C)CC1=Nc1ccc(OC)cc1 | 2.2
COC(=O)c1ccccc1NC(=O)CSc1nc(NC(=O)c2ccccc2)c2c(C)c(C)oc2n1 | i
CCC(c1nnnn1Cc1ccccc1)N(Cc1cc2cc(OC)ccc2[nH]c1=O)CC1CCCO1 (configuration not stated) | 0.1
O=C(O)c1ccccc1C(=O)Nc1nccs1 | 0.2
O=C(NNS(=O)(=O)c1ccc(F)cc1F)C1Cc2c(ccc3ccccc23)O1 (configuration not stated) | 0.5
O=C(Nc1nccs1)NC(C(F)(F)F)C(F)(F)F | i
O=C(NC1CCCCC1)C(c1ccccc1F)N(Cc1ccco1)C(=O)Cn1nnc2ccccc21 (configuration not stated) | 1.2
CCCCCC(O)(CCCCC)C(=O)NNc1ccccc1 | i
CSc1ccc(S(=O)(=O)N2CCCC2)cc1 | i
Cc1cc2ncn(-c3nnnn3-c3ccccc3)c2cc1C | i
CCOC(=O)C1=C(CSc2nc3c(cc2C#N)CN(C)CC3)OC(N)=C(C#N)C1c1ccccc1 (configuration not stated) | 0.2
Cc1sc2nc(SCC(=O)N3CCOCC3)[nH]c(=O)c2c1C | 0.9
C=CCn1c(SCC(=O)Nc2cccc(OC)c2)nnc1-c1cccnc1 | 0.2
COc1cccc(Nc2nc3ccccc3nc2-n2nc(C)cc2C)c1 | 0.6
Cn1nc(C(=O)Nc2c(-c3ccccc3)nc3sccn23)c2ccccc2c1=O | 2.2
Cn1nnc(NC(=O)c2cccc(OCc3ccccc3)c2)n1 | 0.7
O=C(CSc1ncn[nH]1)c1ccccc1 | i
O=C1C2CC=CCC2C(=O)N1c1nc2n(n1)C(c1ccccc1)CC(c1ccccc1)N2 (configuration not stated) | i
COc1ccccc1N1CCN(C(=O)C2CCN(S(=O)(=O)c3ccc(Cl)cc3)CC2)CC1 | 1.0
Cc1cc(=O)oc2cc(OCC(=O)OCc3nnc(-c4ccccc4)o3)ccc12 | 0.2
Cc1cc(S(=O)(=O)n2cnc3ccccc32)c(C)cc1Cl | i
Cc1nn(C)cc1CNC(=O)c1ccc(Br)o1 | 0.6
O=C(CN1CCC(n2nnc3cc(F)ccc32)CC1)NC1CC1 | i
CC(C)CCn1cnc2c(NCc3ccccc3)ncnc21 | i
CCCc1nc(NCc2ccncc2)c2nnn(Cc3ccccc3F)c2n1 | i
COc1ccc(N2C(=O)CS/C2=C\[N+](=O)[O-])cc1 | i
O=C(NCc1ccccc1)C1CCCN(S(=O)(=O)c2cccnc2)C1 (configuration not stated) | 1.8
CCC(=O)Nc1cccc(Br)c1 | i
Cc1ccc(C)c(-n2nnnc2SCC(=O)NCCC2=CCCCC2)c1 | 0.7
C/C(N)=C(/C#N)C(=O)CSc1nnc(-c2ccccc2Br)o1 | 0.8
Cc1c(C#N)c2ncn(Cc3ccccc3)c(=O)c2n1-c1ccccc1 | i
COCCN(Cc1cc2cc3c(cc2nc1Cl)OCO3)C(=O)Nc1ccccc1OC | 1.7
COc1ccccc1N(CC(=O)NC1CCCCC1)C(=O)c1cnn(C(C)C)c1 | 0.9
Cn1cccc1CC(=O)N/N=C\c1cccs1 | 1.2
CN1C(=O)NC(NC(=O)c2ccncc2)(C(F)(F)F)C1=O (configuration not stated) | 0.9
CSc1ccccc1NC(=O)Nc1cccc(Cl)c1 | 2.7
CCS(=O)(=O)c1ccc2oc(SCC(=O)NC3CCCC(C)C3C)nc2c1 (configuration not stated) | 2.5
CCCN1C(=O)SC(CC(=O)Nc2ccc(Br)cc2)C1=O (configuration not stated) | 1.7
CCCCOC(=O)CSCC(=O)Nc1cc(C)on1 | 0.3
CCOC(=O)c1cc(-c2ccc(Cl)s2)nc2c1c(C)nn2C | 1.2
O=C1NCCN1C(=O)c1ccccc1F | i
COc1ccc(-n2ncc3c(=O)n(CC(=O)N4CCCc5ccccc54)cnc32)cc1 | i
COc1nc(N)c(S(=O)(=O)c2ccc(C)cc2)cc1C#N | 0.6
CCCS(=O)(=O)N1CCC(C(=O)NCc2cccnc2)CC1 | 1.1
Cc1sc(NC(=O)CSc2nnnn2C2CCCCC2)c(C#N)c1C | 0.4
CC1CCCCC1n1c(=S)[nH]c2ccccc2c1=O (configuration not stated) | 1.0
Cc1ccccc1[C@@H]1C(C#N)=C(N)S[C@H]1C(=O)c1ccccc1 | 2.0
NC(=S)N/N=C/c1cc([N+](=O)[O-])ccc1OCCOc1ccccc1 | i
Cc1cc(=O)oc(C)c1C(=O)NCCC1=CCCCC1 | 0.2
COc1ccc(N2CC(C(=O)Nc3ccccc3C(=O)NCc3ccco3)CC2=O)cc1 (configuration not stated) | 1.4

(listing goes on)
SMILES | H5N1 CPE
O=C(NC1CCC(NC(=O)C2CCCO2)CC1)C1CCCO1 (configuration not stated) | 0.3
Cc1sc2nc(SCC(=O)NCc3ccco3)n(Cc3ccccc3)c(=O)c2c1C | i
O=S(=O)(/N=C(\Nc1ccc(F)cc1)C(F)(F)F)c1ccccc1 | i
Cc1cc(=O)[nH]c(SCc2cccc(Br)c2)n1 | i
CC(C)(C)OC(=O)c1c(N)n(CCCN2CCCC2=O)c2nc3ccccc3nc12 | i
Cc1ccccc1C(=O)NC(=S)NCC1CCCO1 (configuration not stated) | 1.4
COc1ccccc1OCCC(=O)OCC(=O)Nc1ncc(Cl)cc1Cl | 0.7
c1ccc(-n2nnnc2Oc2ccc(-c3nnco3)cc2)cc1 | i
O=S(=O)(NCCOCC(F)(F)F)c1ccc2oc3ccccc3c2c1 | 2.4
O=C1N(CC(=O)N2CCc3ccccc32)CCN1Cc1ccccc1Cl | i
CN(C(=O)c1ccccc1)c1ccc(OCC(=O)NC2CCS(=O)(=O)C2)cc1 (configuration not stated) | 0.3
Cc1csc(OCC(=O)Nc2ccc(C)c(C)c2)n1 | 0.5
CCc1nn(C(C)C(=O)NC(C)CCc2ccco2)c(=O)c2cc3occc3n12 (configuration not stated) | 5.5
Cc1c(NC(=O)C(C)OC(=O)Cc2ccccc2)c(=O)n(-c2ccccc2)n1C (configuration not stated) | i
COc1ccc(S(=O)(=O)Nc2ccccn2)c(C)c1C | 0.4
CCn1c(SCC(=O)N2CCCC2)nc2ccccc2c1=O | 1.3
O=C(Nc1nc(-c2ccccc2)cs1)C1COc2ccccc2O1 (configuration not stated) | i
Cc1nc(C)n(CC(O)COc2ccc(C(=O)c3ccccc3)cc2)n1 (configuration not stated) | 0.6
COc1ccc(N2CSC3=C(C#N)C(c4cccc(OC)c4OC)CC(=O)N3C2)cc1 (configuration not stated) | 0.1
CCOc1ccc2nc(NS(=O)(=O)c3ccc(NC(C)=O)cc3)sc2c1 | 0.9
CSc1nnc(C)c(/C=C/Nc2ccc(F)cc2)n1 | 1.5
CCN(CC)CC(=O)N1N=C(c2cccs2)CC1c1ccco1 (configuration not stated) | i
CCCCn1c(SCC(=O)c2ccccc2)nc2c1c(=O)[nH]c(=O)n2C | 0.7
COc1ccc(-c2csc(N(CCCN3CCOCC3)C(=O)c3ccco3)n2)cc1 | 0.4
CCOC(=O)c1ccc(NC(=O)Cn2nnc(-c3ccc(F)cc3)n2)cc1 | i
CCCSc1nc(O)c(C2OC(=O)c3c2ccc(OC)c3OC)c(=O)n1-c1ccccc1 (configuration not stated) | 0.9
CN1CCN(C(=O)c2ccc(C(C)(C)C)cc2)CC1 | i
CC(C)Cn1c(SCC(=O)c2ccc(Cl)s2)nnc1-c1ccco1 | i
Cc1ccccc1Cn1cnc2c(cnn2C(C)(C)C)c1=O | 1.5
COc1cc(C(=O)N2CCC(C(=O)Nc3cccc(C(C)=O)c3)CC2)cc(OC)c1OC | i
CC(=O)Nc1cc2ccc(OC(C)=O)cc2oc1=O | 0.4
O=C(C1CCN(c2nc3ccc(Br)cc3s2)CC1)N1CCC2(CC1)OCCO2 | i
Cc1noc(C)c1S(=O)(=O)N1CCCC(C(=O)NCC2CCCO2)C1 (configuration not stated) | 0.1
Cc1c(C(=O)N2CCc3ccccc32)oc2c1C(=O)CC(C)(C)C2 | 0.6
CCCCNc1nnc(SCC(=O)N2CCN(S(=O)(=O)c3ccc4ccccc4c3)CC2)s1 | 1.3
CC(=O)c1nn(-c2cccc(Cl)c2)cc1C(=O)c1ccco1 | i

Quoted at random: 2 entries already listed
SMILES | H5N1 CPE
CCOC(=O)c1ccc(NC(=O)Cn2nnc(-c3ccc(F)cc3)n2)cc1 | i
Cc1c(C(=O)N2CCc3ccccc32)oc2c1C(=O)CC(C)(C)C2 | 0.6

(list continues)
SMILES | H5N1 CPE
Cc1ccc(CSc2nc3c(c(=O)[nH]2)C(c2ccncc2)C2=C(CCCC2=O)N3)cc1 (configuration not stated) | i
Cc1c(C(=O)Nc2ccccc2-c2ccccc2)cccc1[N+](=O)[O-] | i
COCC(C)NC(=O)COc1ccc(Cl)cc1Cl (configuration not stated) | i
Cc1cccc(-c2noc(CN(C(=O)c3ccc4c(c3)OCO4)C(C)C)n2)c1 | i
O=c1c2ccccc2c(C=NC2CCS(=O)(=O)C2)c(O)n1-c1ccccc1 (configuration not stated) | 1.6
CN1C(=O)NC(NC(=O)c2ccco2)(C(F)(F)F)C1=O (configuration not stated) | i
CC(=O)Oc1ccc2c(c1)C(=O)c1ccccc1CO2 | i
CCN(CC)c1ccc(NC(=O)c2ccccc2F)cc1 | 0.8
CSc1nnc(Cc2ccc3c(c2)OCO3)o1 | i
CCNc1ccc(C(=O)OCC)cc1NC(=O)c1cccc(N(C)C)c1 | 0.5
Cc1ccc(F)cc1NC(=O)C1CCCN(c2ncccn2)C1 (configuration not stated) | i
CCCCC(=O)N(c1ccc(OCC)cc1)C1C=CS(=O)(=O)C1 (configuration not stated) | 0.6
Cc1c(C(=O)N2CCN(C(=O)c3ccco3)CC2)sc2nc(-c3ccc(F)cc3)cn12 | i
Cc1cc(C)c2oc(-c3cccc(NC(=O)c4ccc(F)cc4)c3)nc2c1 | 0.3
COC(=O)C(NC(=O)c1ccccc1)c1ccccc1 (configuration not stated) | i
Cc1cc(N2CCC(C)CC2)n2nc(C)c(-c3ccccc3)c2n1 | 0.7
COC(=O)c1ccc(N2CCN(S(=O)(=O)c3ccc4ccccc4c3)CC2)c([N+](=O)[O-])c1 | 1.3
O=C(CN1CCN(c2nc(-c3ccccc3)cs2)CC1)NNC(=O)c1ccc(Br)cc1 | 0.4
Cc1ccc(OCCn2cc(/C(N)=N/O)c3ccccc32)cc1C | i
COC(=O)c1sccc1NC(=S)N1CCC(C)CC1 | 4.5
COC(=O)c1cc2sccc2n1CC(=O)Nc1cccc(SC)c1 | i
CCC(C)n1cnc2c(c1=O)c1nc3ccccc3nc1n2Cc1ccc(OC)cc1 (configuration not stated) | 0.9
COc1cc(C=O)ccc1OCCOCCOc1ccccc1Cl | i
Cc1ccc(C)c(Nc2ncnc3nc[nH]c23)c1 | 1.4
Cc1nc2ccc(C(=O)N3CCN(c4ccccn4)CC3)cc2s1 | i
CCCCCCC(=O)N1CCC(c2nc3c(nnn3Cc3ccccc3Cl)c(=O)[nH]2)CC1 | 3.6
Cc1c(Cl)c([N+](=O)[O-])nn1CC(=O)N1CCc2ccccc2C1 | i
CCCc1cc(SCC(=O)Nc2c(C)n(C)n(-c3ccccc3)c2=O)n2c(nc3ccccc32)c1C#N | 3.2
O=C(CSCCO)N1CCc2ccccc21 | i
Cc1nc(NC(=O)c2ccccc2)sc1-c1csc(Nc2ccc(F)cc2)n1 | i
Cc1ccccc1Nc1nc(N)nc(CSc2nc3ccccc3c(=O)n2CCCO)n1 | i
CC(=O)c1cccc(NC(=O)c2cc3nc(C)cc(C)n3n2)c1 | i
c1csc(Cc2nn3c(-c4n[nH]c5c4CCC5)nnc3s2)c1 | 1.5

Of the compounds above, these have a furan ring, fused or not:
SMILES | H5N1 CPE
COC(=O)c1ccccc1NC(=O)CSc1nc(NC(=O)c2ccccc2)c2c(C)c(C)oc2n1 | i
O=C(NC1CCCCC1)C(c1ccccc1F)N(Cc1ccco1)C(=O)Cn1nnc2ccccc21 (configuration not stated) | 1.2
Cc1nn(C)cc1CNC(=O)c1ccc(Br)o1 | 0.6
COc1ccc(N2CC(C(=O)Nc3ccccc3C(=O)NCc3ccco3)CC2=O)cc1 (configuration not stated) | 1.4
Cc1sc2nc(SCC(=O)NCc3ccco3)n(Cc3ccccc3)c(=O)c2c1C | i
O=S(=O)(NCCOCC(F)(F)F)c1ccc2oc3ccccc3c2c1 | 2.4
CCc1nn(C(C)C(=O)NC(C)CCc2ccco2)c(=O)c2cc3occc3n12 (configuration not stated) | 5.5
CCN(CC)CC(=O)N1N=C(c2cccs2)CC1c1ccco1 (configuration not stated) | i
COc1ccc(-c2csc(N(CCCN3CCOCC3)C(=O)c3ccco3)n2)cc1 | 0.4
CC(C)Cn1c(SCC(=O)c2ccc(Cl)s2)nnc1-c1ccco1 | i
Cc1c(C(=O)N2CCc3ccccc32)oc2c1C(=O)CC(C)(C)C2 | 0.6
CC(=O)c1nn(-c2cccc(Cl)c2)cc1C(=O)c1ccco1 | i
CN1C(=O)NC(NC(=O)c2ccco2)(C(F)(F)F)C1=O (configuration not stated) | i
Cc1c(C(=O)N2CCN(C(=O)c3ccco3)CC2)sc2nc(-c3ccc(F)cc3)cn12 | i
